High-throughput results: PubChem, National Center for Advancing Translational Sciences (NCATS)
Cruzain Triton: blocks cruzain activity in presence of Triton detergent. P25779. AID 1478. actives 0.43% (n = 200,000). Potency, µM, inactives show max response, negative = inhibition, actives largely listed as inhibitors. purified cruzain, Z-FR-AMC fluorescence, 0.01% Triton; active = well fitted curve in the direction sought with a large enough effect; inconclusive = small, poorly fitted or top-dose-only effect, or another doubt; inactive = no such curve, though single readings can be large; an effect the other way counts as inactive or inconclusive;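 note: plate controls were neutral wells for no effect and buffer without enzyme for full effect; nearly all actives have a fitted effect of over 40% in size; top concentration of the series not given in the record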
Target sequence (P25779 123-467 limits assumed): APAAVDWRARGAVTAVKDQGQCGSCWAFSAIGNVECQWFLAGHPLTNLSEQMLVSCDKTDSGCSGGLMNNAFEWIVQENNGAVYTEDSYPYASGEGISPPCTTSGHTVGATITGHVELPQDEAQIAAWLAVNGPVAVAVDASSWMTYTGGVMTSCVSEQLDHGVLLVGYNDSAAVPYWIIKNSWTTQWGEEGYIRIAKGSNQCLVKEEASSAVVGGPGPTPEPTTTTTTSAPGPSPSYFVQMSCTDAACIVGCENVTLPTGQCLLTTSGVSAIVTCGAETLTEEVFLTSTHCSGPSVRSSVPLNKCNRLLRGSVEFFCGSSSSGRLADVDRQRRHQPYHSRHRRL
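In this qHTS format, compounds are incubated with 1.5 nM cruzain for 15 min at room temperature before 2 uM Z-FR-AMC is added. Release of AMC is followed at 360/450 nm, and progress is taken as the 60 s fluorescence difference.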
2A StopGo: FMDV 2A StopGo reporter, luciferase signal | human cells with a luciferase reporter of 2A StopGo recoding; control for the full effect not named in the record | actives 1.2% (n = 410,000) | AID 1159524 | Potency, µM (highest dose often 57.9 µM), for the others: at the highest dose signal change, negative = less light; active = well fitted falling curve with a large enough effect; inconclusive = small, poorly fitted or top-dose-only effect; inactive = no such curve, though single readings can be large or run the other way; tested in HEK293T cells; note: % is set by controls: 0 for no effect and ±100 for the full control effect; nearly all actives have a fitted effect of over 45% in size; luciferase light after 4 h
MARV entry inh: blocks Marburg virus binding to or entry into cells. Marburg virus pseudotyped entry inhibition, cell reporter; control for the full effect not named in the record; about a third of the inactives were read at about 46 µM. Potency, µM (series often up to 37.8 µM), for the others: top-dose activity change, negative = inhibition, actives largely listed as inhibitors. actives 1.8% (n = 300,000). AID 540276; active = well fitted inhibition curve with a large enough effect; inconclusive = small, poorly fitted or top-dose-only effect, or effect the other way; inactive = flat fitted curve, though single readings scatter; tested in HEK293 cells; about a fifth of its hits are not listed in these tables; note: % is set by controls: 0 for no effect and ±100 for the full control effect; luciferase read-out
NS1 function inh: influenza NS1 inhibition. S. cerevisiae slowed by influenza A NS1, growth recovery by OD600. actives 0.4% (n = 270,000). Potency, µM (doses to about 46.1 µM), without a hit: at the highest dose activity, positive = more growth; note: actives are rising curves; nearly all actives have a fitted effect of over 50% in size
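Compounds were scored for reversing the slow growth caused by influenza A NS1 in S. cerevisiae, measured by optical density at 600 nm. Assay medium contained 2% galactose at pH 6.0; NS1-free yeast of the same strain were the positive control.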
SARS PLpro yeast: blocks SARS-CoV papain-like protease in a yeast assay; S. cerevisiae expressing SARS-CoV PLpro, growth rescue; control for the full effect not named in the record; Potency, µM (doses to about 32.9 µM), without a hit: at the highest dose activity, positive = growth rescue; actives 0.19% (n = 330,000); note: 0% is about no effect; nearly all actives have a fitted effect of over 55% in size; growth read by luminescence after 48 h
Cruzain noTriton: cruzain (T. cruzi) inhibition without detergent; P25779; purified cruzain, Z-FR-AMC fluorescence, no detergent; Potency, µM, inactives show max response, negative = inhibition, usual class: inhibitors; actives 2.3% (n = 200,000); active = well fitted curve in the direction sought with a large enough effect; inconclusive = small, poorly fitted or top-dose-only effect, or another doubt; inactive = no such curve, though single readings can be large; an effect the other way counts as inactive or inconclusive;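 note: plate controls were enzyme without inhibitor for no effect and buffer without enzyme for full effect; nearly all actives have a fitted effect of over 40% in size; top concentration of the series not given in the record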
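Detergent-free condition (0.00005% Triton X-100) in acetate buffer pH 5.5 with DTT. 1.5 nM enzyme and compound were pre-mixed 15 min, then 2 uM Z-FR-AMC substrate added; reaction progress from fluorescence change between first and third reads (60 s).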
LASV entry inh: Lassa virus entry inhibition; Lassa virus pseudotype entry inhibition, cell reporter; control for the full effect not named in the record; Potency, µM (series often up to 37.9 µM), for the others: at the top dose activity change, negative = inhibition, most hits filed as inhibitors; actives 1.2% (n = 300,000); AID 540256; active means well fitted inhibition curve with a large enough effect; inconclusive means small, poorly fitted or top-dose-only effect, or effect the other way; inactive means flat fitted curve, though single readings scatter; tested in HEK293 cells; note: % is set by controls: 0 for no effect and ±100 for the full control effect; nearly all actives have a fitted effect of over 50% in size; luciferase read-out
RE007 growth inh: less growth of the S. pombe RE007 Vpr strain; AID 651644; S. pombe RE007 Vpr strain, BacTiter-Glo ATP luminescence, 24 h; control for the full effect not named in the record; actives 0.21% (n = 360,000); Potency, µM (titrated, usually from 92.2 µM), for inactives: at the highest dose activity change, negative = less growth; active = well fitted falling curve with a large enough effect; inconclusive = small, poorly fitted or top-dose-only effect; inactive = no such curve, though single readings can be large or run the other way;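 note: % is set by controls: 0 for no effect and ±100 for the full control effect; nearly all actives have a fitted effect of over 50% in size; the assay follows cell death caused by Vpr and the record does not say whether a fall means rescue or toxicity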
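Fission yeast strain RE007, carrying one chromosomally integrated HIV-1 vpr copy, was seeded at OD 0.01 in PMG+AL medium with 23 nL pinned compound. After 24 h at 30 °C and 99% humidity, viability was read by BacTiter-Glo luminescence.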
* = called active by the depositor; ? = inconclusive; · = no result given; & = joins results of further samples; [ ] = remark or other dose. Unless noted, calls come from the whole dose curve; as a rule, active means well fitted rising curve with a large enough effect; inconclusive means small, poorly fitted or top-dose-only effect; inactive means no such curve, though single readings can be large or run the other way. Potency is the fitted concentration of half-maximal effect.

SMILES | Cruzain Triton | 2A StopGo | MARV entry inh | NS1 function inh | SARS PLpro yeast | Cruzain noTriton | LASV entry inh | RE007 growth inh
CC12CC3CC(C)(C1)CC(C(=O)N1CCN(C(=O)c4ccco4)CC1)(C3)C2 | · | -27% | 1%[46.1 µM] | -48% | -3% | · | 4% | -2%
Cc1cccc(NC(=O)c2ccc(OCc3c(C)noc3C)cc2)c1C | · | 0% | ? | · | -2% | · | ? | -1%
Cc1ccccc1-n1c(Cn2c(=O)sc3ccccc32)nnc1SCC(=O)N1CCOCC1 | 2.8% | -15% | · | 4% | 7% | 8% | · | -10%
CC(C)(C)C(=O)N1CCN(c2ccc(NC(=O)c3ccco3)cc2)CC1 | · | 14% | ? | 0% | 0% | · | -8%[46.1 µM] | -10%
c1ccc(CCNCc2ccccc2)cc1 | 0.4% | 10% | -13% | 0% | -16% | 4% | 13% | -7%
Cc1cccc(C)c1N/C=C/c1onc(C)c1[N+](=O)[O-] | -0.7% | 0% | -6% | -1% | · | -6% | 7% | 94%
CCc1ccc(NC(=O)COC(=O)C2(c3ccc(Cl)cc3)CCCC2)cc1 | -7.9% | 20µM* | 24% | -3% | 5% | 0% | 1% | 3%
O=C(Nc1ccc(NC(=O)c2ccccn2)cc1)C(=O)Nc1ccc2c(c1)OCCO2 | · | 8% | ? | · | 0% | · | 4%[46.1 µM] | 10%
COc1cc(C(=O)N2CCNCC2)cc(OC)c1OC | · | 3% | · | -7% | 5% | · | · | -4%
O=C1C2(CCCC13COC(c1ccc(O)cc1)OC3)COC(c1ccc(O)cc1)OC2 (stereo unspecified) | · | -7% | · | 3% | 10% | · | · | -6%
O=C(Nc1ccc2c(c1)OCCO2)c1cccc(C(=O)Nc2ccc3c(c2)OCCO3)c1 | · | 1% | ? | 10% | -2% | · | ? | -2%
Cc1cccc(N2C(=O)CC(N3CCN(c4ccc(Cl)cc4)CC3)C2=O)c1 (stereo unspecified) | · | -19% | · | -5% | -14% | · | · | -1%
CC(C)c1ccc2[nH]c3c(c2c1)CCCC3=O | · | 9% | -7%[46.1 µM] | · | -3% | · | -1% | -11%
N#C/C(=C(/O)CN1CCN(c2ccccc2F)CC1)c1nc(-c2ccccc2)cs1 | 1.3% | 4% | 8% | 7% | 0% | -14% | 4% | 3%
COCCC(=O)N1CCC(Oc2ccc(C(=O)NCc3ncc(C)[nH]3)cc2)CC1 | · | 6% | 21% | 8% | 6% | · | 2% | 7%
Cc1ccc(-c2nnn(CC(=O)N(c3ccc(F)cc3)C(C(=O)NC3CCCC3)c3ccco3)n2)o1 (stereo unspecified) | 2.4% | -1% | ? | -6% | 4% | 10µM* | -15% | 11%
COCC(=O)N(Cc1cc2ccc(C)c(C)c2n2nnnc12)C1CCCC1 | · | -18% | ? | · | -4% | · | -16%[46.1 µM] | 6%
CC(=O)NCc1ccc(S(=O)(=O)N2CCN(c3ccccn3)CC2)cc1 | · | 19% | ? | 4% | 2% | · | 20%[46.1 µM] | 2%
CCc1c(C)c2ccc3c(c2oc1=O)CN(Cc1ccccc1)CO3 | -17% | -2% | · | · | · | ? | 22%[46.1 µM] | ·
Cc1ccc(C(C(=O)NCC2CCCO2)N(C(=O)c2snc(C(N)=O)c2N)c2ccc3c(c2)OCCO3)cc1 (stereo unspecified) | · | -2% | ? | 6% | 0% | · | 6.3µM* | 1%
Cc1ncoc1C(=O)N1CCc2c([nH]c3ccccc23)C1c1ccccc1F (stereo unspecified) | · | 2% | ? | 0% | 0% | · | -9% | 13%
COc1ccc(C2=C(C)C(N3CCC(C(=O)Nc4cc(C)ccc4C)CC3)=NS2(=O)=O)cc1 | -0.3% | -19% | · | · | · | 21% | -6%[46.1 µM] | ·
CCOCCCNC(=O)/C(C#N)=C/c1cc(Br)c(O)c(Br)c1 | · | ? | · | -52% | -2% | · | · | -5%
COc1ccc(O)c(CN2CCCC(N3CCN(c4ccc(F)cc4)CC3)C2)c1 (stereo unspecified) | · | -24% | · | 26% | -8% | · | · | 13%
Cc1ccc(/C=C/C(=O)OCC(=O)NCc2ccccc2)o1 | · | -16% | 0%[46.1 µM] | · | 0% | · | -17% | 11%
CC1=NC(C)(C)CC2CCC(O)C12 (stereo unspecified) | · | -7% | 6% | · | · | · | 7% | 13%
O=C1Nc2ccccc2C1=Nc1ccc(-c2nnc3n2CCCCC3)cc1 | -0.3% | -1%&10% | -20%[46.1 µM] | 0% | -1% | -8% | 4%[46.1 µM] | 4%&15%
COc1ccc(CCNC(=S)N2CCN(S(=O)(=O)c3ccc(F)cc3)CC2)cc1 | · | 1% | -4% | · | 4% | · | -5% | 1%
CCOC(=O)c1c(C)oc2c1c1c(c3ccccc32)OCN(Cc2cccnc2)C1 | -9.8% | -10% | 7% | -19% | -21% | -12% | ? | -3%
Cc1ccc(S(=O)(=O)N2CCCN(C(=O)c3cc4ccccc4[nH]3)CC2)cc1 | · | 0% | 25%[46.1 µM] | -11% | -22% | · | 0% | 4%
CCN(CC)CCn1c(C)nc2ccccc21 | · | -12% | -7% | 2% | 1% | · | 7% | 3%
CCOC(=O)c1c(-c2ccccc2)oc2ccc(OCc3ccccc3Br)cc12 | -0.2% | -18% | · | · | · | 6% | 5%[46.1 µM] | ·
Cc1nn(Cc2ccc(Cl)cc2Cl)c(C)c1NC(=O)c1sc2ccccc2c1Cl | 0.7% | -28% | 2% | -1% | 5% | ? | -14% | -7%
CSc1ccc(/C=N/n2c(C)nc3ccccc3c2=O)cc1 | · | 26% | · | 3% | 1% | · | · | 1%
CC(OC(=O)c1ccncc1)C(=O)Nc1cccc([N+](=O)[O-])c1 (stereo unspecified) | · | 3% | 3%[46.1 µM] | 8% | 1% | · | 20% | 4%
COc1ccc(-c2csc(NC(=O)CCCc3nc4ccccc4c(=O)[nH]3)n2)cc1OC | · | -22% | 1% | · | -1% | · | ? | -5%
CC(Oc1ccc(Cl)cc1Cl)C(=O)NCCCn1ccnc1 (stereo unspecified) | -1.4% | -24% | -2% | 0% | -4% | ? | 6% | ?
O=C(CCNS(=O)(=O)c1ccc(Br)cc1)NCCc1ccc(Cl)cc1 | · | -10% | ? | 6% | 1% | · | 7%[46.1 µM] | 1%
CCCCn1c(O)c(/C=C2/C=CC=N2)c(=O)[nH]c1=O | · | -5% | -14%[46.1 µM] | -78% | -7% | · | -30% | 11%
Cc1ccc(NC(=O)CCNS(=O)(=O)c2ccc3[nH]c(=O)oc3c2)cc1N(C)C | · | 19% | · | 13% | -12% | · | · | 13%
NC(=O)c1ccc(-n2nnnc2SCC(=O)Nc2ccccc2)cc1 | · | 1% | · | 14% | 3% | · | · | 6%
CCOC(=O)c1c(C=O)c2ccccc2n1Cc1ccccc1 | · | -10% | · | -34% | -4% | · | · | 8%
Cc1cc(C)c2oc(C(=O)Nc3sc4c(c3C(=O)NCc3ccco3)CCCC4)cc(=O)c2c1 | -2.2% | -8% | 7%[46.1 µM] | · | · | -9% | 1%[46.1 µM] | ·
O=C(NCCc1cnc[nH]1)c1cccs1 | · | 12% | · | -5% | 7% | · | · | 2%
C/C(Cn1nnc([N+](=O)[O-])n1)=N\NC(=O)c1ccc(O)cc1 | · | -29% | · | 4% | 4% | · | · | 7%
CCN(CC)CCOC(=O)c1ccc(N=Cc2c(O)[nH]c(=O)[nH]c2=O)cc1 | 1.0% | 7% | 19%[46.1 µM] | 0% | -11% | -4% | 1% | -11%
Cc1onc(-c2ccccc2)c1C(O)c1ccc(F)cc1 (stereo unspecified) | · | -22% | · | 1% | 1% | · | · | -19%
COc1ccccc1C(=O)NC(=O)COC(=O)CCOc1cc(C)ccc1C | · | -13% | 14% | -17% | -1% | · | 3% | -17%
CCc1ccc(-n2nc3cc(C)c(NC(=O)c4cc(OC)cc(OC)c4)cc3n2)cc1 | 1.4% | 10% | ? | · | · | 16% | -12%[46.1 µM] | ·
COc1ccccc1CCC(=O)OCC(=O)NC1CCCC1 | · | -6% | -3%[46.1 µM] | · | 0% | · | -12% | 4%

Another view of some results above:
Values run as follows: Cruzain Triton | 2A StopGo | MARV entry inh | NS1 function inh | SARS PLpro yeast | Cruzain noTriton | LASV entry inh | RE007 growth inh
- CCOC(=O)c1c(C=O)c2ccccc2n1Cc1ccccc1
 : · | -10% | · | -34% | -4% | · | · | 8%
- Cc1cc(C)c2oc(C(=O)Nc3sc4c(c3C(=O)NCc3ccco3)CCCC4)cc(=O)c2c1
 : -2.2% | -8% | 7%[46.1 µM] | · | · | -9% | 1%[46.1 µM] | ·
- O=C(NCCc1cnc[nH]1)c1cccs1
 : · | 12% | · | -5% | 7% | · | · | 2%
- C/C(Cn1nnc([N+](=O)[O-])n1)=N\NC(=O)c1ccc(O)cc1
 : · | -29% | · | 4% | 4% | · | · | 7%
- CCN(CC)CCOC(=O)c1ccc(N=Cc2c(O)[nH]c(=O)[nH]c2=O)cc1
 : 1.0% | 7% | 19%[46.1 µM] | 0% | -11% | -4% | 1% | -11%

Further structures follow.
SMILES | Cruzain Triton | 2A StopGo | MARV entry inh | NS1 function inh | SARS PLpro yeast | Cruzain noTriton | LASV entry inh | RE007 growth inh
Cc1nn(C)c(C)c1CCC(=O)O | · | -5% | 1%[46.1 µM] | 1% | 1% | · | 1% | 4%
O=C(O)CSc1nnc(COc2ccccc2)n1-c1ccccc1 | · | -10% | · | 14% | 1% | · | · | -5%
CCOc1ccc(-n2c(O)c(/C=N/Nc3nnc(C)c(=O)[nH]3)c3ccccc3c2=O)cc1 | · | -19% | -13%[46.1 µM] | · | 0% | · | -1% | -15%
O=C(COC(=O)c1ccccn1)Nc1ncc(C(F)(F)F)cc1Cl | 3.2% | 9% | 14% | 0% | -12% | 9% | -18% | 12%
CCCCn1c(NCCN(C)C)nc2c1c(=O)[nH]c(=O)n2C | 0.4% | 11% | -9% | 4% | -12% | 1% | 2% | -1%
